Marburg entry inh – Marburg virus entry inhibition; Marburg virus pseudotyped entry inhibition, cell reporter; control for the full effect not named in the record; about a third of the inactives were read at about 46 µM; Potency, µM (top dose mostly 37.8 µM), inactives show top-dose activity change, negative = inhibition, most hits filed as inhibitors; 300,000 tested, 1.8% active; AID 540276; active = well fitted inhibition curve with a large enough effect; inconclusive = small, poorly fitted or top-dose-only effect, or effect the other way; inactive = flat fitted curve, though single readings scatter; tested in HEK293 cells; about a fifth of its hits are not listed in these tables; also: % is scaled to controls: 0 for no effect and ±100 for the full control effect; luciferase read-out
SARS PLpro yeast – inhibitors of SARS-CoV papain-like protease in yeast; S. cerevisiae expressing SARS-CoV PLpro, growth rescue; control for the full effect not named in the record; Potency, µM (doses to about 32.9 µM), for the others: at the top dose activity, positive = growth rescue; 330,000 tested, 0.19% active; AID 485353; also: 0% is about no effect; nearly all actives have a fitted effect of over 55% in size; growth read by luminescence after 48 h
Cruzain inh Det – inhibitors of Trypanosoma cruzi cruzain with detergent; purified cruzain, Z-FR-AMC fluorescence, 0.01% Triton; Potency, µM, for the others: max response, negative = inhibition, usual class: inhibitors; 200,000 tested, 0.43% active; active = well fitted curve in the direction sought with a large enough effect; inconclusive = small, poorly fitted or top-dose-only effect, or another doubt; inactive = no such curve, though single readings can be large; an effect the other way counts as inactive or inconclusive;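 also: plate controls were neutral wells for no effect and buffer without enzyme for full effect; nearly all actives have a fitted effect of over 40% in size; top concentration of the series not given in the record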
Target sequence (P25779 123-467 limits assumed): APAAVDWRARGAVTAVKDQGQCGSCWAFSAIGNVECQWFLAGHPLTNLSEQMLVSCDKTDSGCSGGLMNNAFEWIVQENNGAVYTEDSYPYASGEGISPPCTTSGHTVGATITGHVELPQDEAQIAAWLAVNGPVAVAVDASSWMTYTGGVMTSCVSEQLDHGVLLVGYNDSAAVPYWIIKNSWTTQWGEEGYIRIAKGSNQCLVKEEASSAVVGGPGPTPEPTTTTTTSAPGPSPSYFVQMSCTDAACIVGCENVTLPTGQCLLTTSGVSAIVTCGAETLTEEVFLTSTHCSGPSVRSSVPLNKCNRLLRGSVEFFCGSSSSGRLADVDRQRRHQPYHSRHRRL
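Cysteine protease activity tested under reducing, mildly acidic conditions (100 mM sodium acetate pH 5.5, 5 mM DTT) plus 0.01% Triton X-100. Cruzain 1.5 nM; substrate Z-FR-AMC 2 uM; 15 min compound preincubation at room temperature.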
LASV entry inh – Lassa virus entry inhibition | Potency, µM (top dose mostly 37.9 µM), without a hit: at the highest dose activity change, negative = inhibition, actives largely listed as inhibitors | 300,000 tested, 1.2% active | Lassa virus pseudotype entry inhibition, cell reporter; control for the full effect not named in the record; active means well fitted inhibition curve with a large enough effect; inconclusive means small, poorly fitted or top-dose-only effect, or effect the other way; inactive means flat fitted curve, though single readings scatter; tested in HEK293 cells; also: % is scaled to controls: 0 for no effect and ±100 for the full control effect; nearly all actives have a fitted effect of over 50% in size; luciferase read-out
StopGo reporter – FMDV 2A StopGo reporter, luciferase signal. human cells with a luciferase reporter of 2A StopGo recoding; control for the full effect not named in the record. Potency, µM (series often up to 57.9 µM), inactives show at the top dose signal change, negative = less light. 410,000 tested, 1.2% active; active = well fitted falling curve with a large enough effect; inconclusive = small, poorly fitted or top-dose-only effect; inactive = no such curve, though single readings can be large or run the other way; tested in HEK293T cells; also: % is scaled to controls: 0 for no effect and ±100 for the full control effect; nearly all actives have a fitted effect of over 45% in size; luciferase light after 4 h
NS1 function inh – inhibitors of influenza NS1 protein function; 270,000 tested, 0.4% active; Potency, µM (series often up to 46.1 µM), for inactives: at the top dose activity, positive = more growth; S. cerevisiae slowed by influenza A NS1, growth recovery by OD600; also: actives are rising curves; nearly all actives have a fitted effect of over 50% in size
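Read-out: OD600 growth recovery of NS1-expressing budding yeast. Cells grown overnight at 30C in -URA glucose medium, washed, resuspended and diluted 1:100 in 2% galactose assay medium, pH 6.0. Same strain lacking NS1 served as positive control.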
RE007 growth inh – less growth of the S. pombe RE007 Vpr strain | Potency, µM (doses to about 92.2 µM), for the others: at the highest dose activity change, negative = less growth | AID 651644 | 360,000 tested, 0.21% active | S. pombe RE007 Vpr strain, BacTiter-Glo ATP luminescence, 24 h; control for the full effect not named in the record; active = well fitted falling curve with a large enough effect; inconclusive = small, poorly fitted or top-dose-only effect; inactive = no such curve, though single readings can be large or run the other way;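 also: % is scaled to controls: 0 for no effect and ±100 for the full control effect; nearly all actives have a fitted effect of over 50% in size; the assay follows cell death caused by Vpr and the record does not say whether a fall means rescue or toxicity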
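Fission yeast RE007 carrying one integrated HIV-1 vpr copy, seeded at OD 0.01 in PMG+AL medium with 23 nL pinned compound. Grown 24 h at 30 degrees; viability read by BacTiter-Glo luminescence after 5 min.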
Cruzain inh noDet – inhibitors of Trypanosoma cruzi cruzain without detergent | P25779 | purified cruzain, Z-FR-AMC fluorescence, no detergent | Potency, µM, for the others: max response, negative = inhibition, actives largely listed as inhibitors | 200,000 tested, 2.3% active | AID 1476; active = well fitted curve in the direction sought with a large enough effect; inconclusive = small, poorly fitted or top-dose-only effect, or another doubt; inactive = no such curve, though single readings can be large; an effect the other way counts as inactive or inconclusive;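 also: plate controls were enzyme without inhibitor for no effect and buffer without enzyme for full effect; nearly all actives have a fitted effect of over 40% in size; top concentration of the series not given in the record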
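Purified cruzain at 1.5 nM, pre-incubated 15 min with compound at room temperature in 100 mM sodium acetate pH 5.5, 5 mM DTT, 0.00005% Triton X-100. Reaction started with 2 uM Z-FR-AMC; AMC fluorescence increase over 60 s gives rate.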
Numbers without * were called inactive; ? = inconclusive; nt = no result given; & = joins results of further samples; [ ] = remark or other dose. Unless noted, calls follow the shape of the dose curve; as a rule, active means well fitted rising curve with a large enough effect; inconclusive means small, poorly fitted or top-dose-only effect; inactive means no such curve, though single readings can be large or run the other way. Potency is read from the fitted curve at half-maximal effect.

SMILES | Marburg entry inh | SARS PLpro yeast | Cruzain inh Det | LASV entry inh | StopGo reporter | NS1 function inh | RE007 growth inh | Cruzain inh noDet
Cc1cc(C)c2cc(C(=O)N3CCC(N4CCCCC4)CC3)[nH]c2c1 | -30%[46.1 µM] | 0% | nt | -20%[46.1 µM] | -7% | -2% | -10% | nt
COc1ccc(C(=O)N2CCC(c3ccncc3)CC2)cc1OC | nt | nt | 0.8% | -4%[46.1 µM] | -6% | nt | nt | 1%
O=C1CC(C(=O)N2CCN(c3ccccc3O)CC2)CN1Cc1ccccc1 (stereo unspecified) | 9% | 4% | nt | -23%[46.1 µM] | ? | nt | -9% | nt
O=C(Nc1ccnn1C1CCN(Cc2ccn[nH]2)CC1)c1ccccc1 | 12% | 5% | nt | -2% | -14% | -4% | 5% | nt
COc1cc(C=O)ccc1OCCSc1ccc(Cl)cc1 | 2% | -1% | -2.4% | 17% | -4% | -126% | 4% | -11%
Cc1ccc2c(c1)nnc1nnc(SCC(=O)O)n12 | 3%[46.1 µM] | -1% | nt | 3% | -11% | -1% | 260% | nt
OCc1ccc(OCCCOc2cccc3cccnc23)cc1 | nt | -9% | nt | nt | 5% | -18% | 4% | nt
CCOC(=O)c1cn2nc(Oc3ccc(C#N)cc3)ccc2n1 | -1%[46.1 µM] | -2% | nt | -16%[46.1 µM] | 4% | -2% | -16% | nt
COc1cc(/C=N/N2C(=O)C3C4C=CC(CC4)C3C2=O)ccc1O (stereo unspecified) | 7%[46.1 µM] | 2% | nt | 2%[46.1 µM] | 45%[activator] | nt | 1% | nt
COc1cc2c(cc1NC(=O)COc1ccc(Br)cc1)oc1ccccc12 | ? | nt | -2.5% | 20%[46.1 µM] | ? | nt | nt | 8%
CCOc1ccc(NC(=O)Cn2cnc3sc(C)c(S(=O)(=O)N4CCN(c5ccccc5OC)CC4)c3c2=O)cc1 | ? | nt | -4.1% | -22%[46.1 µM] | 0% | nt | nt | ?
O=C(N/N=C/C1CCCCC1)c1ccccn1 | 3%[46.1 µM] | -1% | 8.5% | 4% | 67%[activator] | 1% | 2% | -3%
CCCOc1ccc(CNC(=O)c2cc3oc4ccccc4c3n2C)cc1 | ? | nt | -9.6% | nt | 6% | nt | nt | 0%
O=C(N/C(=C\c1ccc(Cl)cc1)C(=O)N1CCOCC1)c1ccc([N+](=O)[O-])cc1 | ? | 1% | nt | 10% | 0% | nt | -1% | nt
Cc1nc2nc(SCC(=O)NCCc3ccccc3)nn2c(C)c1Cc1c(F)cccc1Cl | -24%[46.1 µM] | nt | -6.6% | 5%[46.1 µM] | 1% | nt | nt | 0%
C=CCOc1cccc(C2C(C(=O)c3cccs3)=C(O)C(=O)N2Cc2cccnc2)c1 (stereo unspecified) | 11%[46.1 µM] | -1% | nt | 9% | 56%[activator] | 3% | 10% | nt
O=C(Cc1ccccc1F)Nc1cccc(S(=O)(=O)N2CCOCC2)c1 | -32%[46.1 µM] | 2% | nt | -15%[46.1 µM] | 15% | nt | -15% | nt
COc1ccc(CCNC(=O)c2nn(-c3ccc(C)cc3)c(=O)c3c2c2ccccc2n3C)cc1OC | ? | nt | -1.8% | 1%[46.1 µM] | -15% | nt | nt | -11%
CC(C)NC(=S)NC1(C)CCS(=O)(=O)C1 (stereo unspecified) | 0% | 3% | 0.1% | 11% | -18% | 0% | -1% | -2%
O=C(NCCCN1CCOCC1)c1sc2cc(F)ccc2c1Cl | ? | -3% | nt | ? | 24% | -1% | -9% | nt
CN(Cc1ccc(F)cc1)C(=O)COc1ccccc1-c1ccccc1 | ? | -2% | -8.7% | -7% | ? | 0% | -7% | 12%
COc1ccc(CCNC(=O)CN(Cc2ccc(Cl)cc2)S(C)(=O)=O)cc1OC | nt | -8% | nt | nt | -11% | 9% | -5% | nt
Cc1ccc(C(C)C)c(OCc2nn(CC(=O)c3ccc(Cl)cc3)c3[n+]2CCCCC3)c1 | ? | -3% | nt | ? | 32µM* | nt | 75% | nt
COc1cccc(C(=O)Nc2cc(C)ccc2NC(=O)COc2ccccc2)c1 | 3% | -2% | -5.4% | -2% | -17% | 10% | 1% | -3%
CCCN(CC(=O)Nc1ccc(Cl)cc1Cl)C(=O)CC(NC(C)=O)c1ccccc1 (stereo unspecified) | -15% | 3% | nt | -23% | -9% | 4% | 3% | nt
Carrying on.
SMILES | Marburg entry inh | SARS PLpro yeast | Cruzain inh Det | LASV entry inh | StopGo reporter | NS1 function inh | RE007 growth inh | Cruzain inh noDet
NNC(=O)CCCCCCCCCCOCCCCO | ? | -3% | nt | 22%[46.1 µM] | 3% | -1% | 4% | nt
CC(=O)Nc1ccc(NC(=O)CCCn2cnc3ccccc3c2=O)cc1 | nt | 0% | nt | nt | -8% | 10% | 2% | nt
COC(=O)c1ccccc1NC(=O)CSc1nnc(C(CO)NC(=O)c2ccccc2)n1C (stereo unspecified) | 0%&1% | 6% | 4.7% | 3% | nt | -7% | 3% | 5%
O=C(NCc1ccon1)C1CCC(=O)N(CCc2ccc(Cl)cc2)C1 (stereo unspecified) | -1% | 2% | nt | ? | -18% | 14% | 6% | nt
CCCCOc1ccc(C(=O)N(Cc2nc(-c3ccc(Cl)cc3)no2)C(C)C)cc1 | 4%[46.1 µM] | nt | -8.0% | ? | -5% | nt | nt | -22%
CC(=O)OC1(c2ccccc2)CCN(C2CCCCC2)CC1C (stereo unspecified) | nt | 2% | nt | nt | -3% | -2% | -10% | nt
CN1C(=O)c2cccc3c(N(C)C)ccc(c23)C1=O | nt | -5% | nt | nt | -4% | -26% | 7% | nt
Cc1ccc(/C=C(/C#N)c2nc(CCN3C(=O)c4ccccc4C3=O)cs2)cc1 | 6% | 1% | -2.3% | 0% | 0% | 8% | -4%[3.69 µM] | 3%
CC(=O)N1CCCc2cc(S(=O)(=O)NCc3ccc(C)cc3)ccc21 | -19% | -5% | 0.6% | -18% | 14% | -1% | 14% | -16%
COc1ccc(CNc2nc(-c3cccnc3)nn2C(=O)c2ccco2)cc1 | 7% | -1% | -5.3% | 1% | -7% | -30% | -16% | ?
Cc1nc(SCC(=O)Nc2ccccc2)c2oc3ccccc3c2n1 | 3% | -2% | 0.4% | -3% | -25% | -10% | 2% | -4%
Cc1nnsc1C(=O)NNc1c(Cl)cccc1Cl | ? | -1% | nt | -17%[46.1 µM] | -6% | -56% | 84% | nt
CCCC(=O)NC(=S)NNC(=O)c1ccc([N+](=O)[O-])cc1 | 0% | -4% | -2.3% | -3% | -14% | -26% | -5% | -9%
COc1ccc2c(Cl)c(C(=O)NCCCn3ccnc3)sc2c1Cl | -2% | 1% | -8.6% | -11% | -2% | 0% | -8% | -13%
COc1cccc(CC(=O)NC2CCCN(Cc3ccc(Cl)cc3)C2)c1 (stereo unspecified) | -10% | 1% | nt | 0% | ? | 18% | 1% | nt
COc1ccc(-c2oc3ncn4nc(COc5ccc(Cl)cc5)nc4c3c2-c2ccc(OC)cc2)cc1 | nt | nt | 0.1% | 0%[46.1 µM] | -12% | nt | nt | -3%
CCOC(=O)c1c(C)c(C(=O)NCCCOC(C)C)c(C)n1C | -2% | 3% | 1.0% | 0% | 16% | -6% | 16% | 5%
COc1ccc(Nc2oc(COc3ccc(C)cc3)nc2C#N)cc1 | -29% | 21% | -12% | -27% | -29% | 4% | -9%[3.69 µM] | 20%
COc1cccc(NS(=O)(=O)c2cc3c(cc2C)NC(=O)CO3)c1 | nt | -2% | nt | nt | 21% | 10% | -10% | nt
CC12CCC(C(=O)Nc3ncc([N+](=O)[O-])s3)(OC1=O)C2(C)C (stereo unspecified) | ? | -3% | 0.8% | -1% | -5% | -4% | -18% | 0%
COc1ccc(CCNC(=O)Cn2ccc3cc(S(=O)(=O)N4CCCCC4)ccc32)cc1OC | nt | nt | -4.9% | -6%[46.1 µM] | -26% | nt | nt | ?
COc1ccc(-c2noc(CCC(=O)Nc3ccc(C(F)(F)F)cc3)n2)cc1 | 6%[46.1 µM] | nt | -4.9% | 28%[46.1 µM] | -14% | nt | nt | ?
CC1=NN(c2ccccc2)C(=O)C1N=Nc1ccc(N)cc1 (stereo unspecified) | -18% | -5% | -8.3% | 0% | ? | 6% | ? | ?
COc1ccccc1CN(CC(=O)NCc1ccco1)C(=O)CNS(=O)(=O)c1ccccc1 | 0% | 0% | -3.1% | -15% | -12% | -6% | 16% | -1%
O=C(NCc1ccccc1)c1ccc(F)c(S(=O)(=O)N2CCOCC2)c1 | -7% | -1% | 4.8% | -1% | -8% | 9% | 6% | -7%
(further entries)
SMILES | Marburg entry inh | SARS PLpro yeast | Cruzain inh Det | LASV entry inh | StopGo reporter | NS1 function inh | RE007 growth inh | Cruzain inh noDet
COc1ccccc1N1CCN(c2ccc(=O)n(CC(=O)Nc3ccc(F)c(F)c3)n2)CC1 | nt | nt | -1.9% | ? | -6% | nt | nt | -6%
CCOC(=O)c1c(C)nc2c(c1C)/C(=N/O)CC(C)(C)C2 | ? | 3% | 2.4% | -15% | nt | -13% | -2% | -2%
CCCc1nnc(NC(=O)CCS(=O)(=O)c2ccccc2)s1 | -11%[46.1 µM] | 4% | nt | -18% | -16% | 5% | -19% | nt
COc1cc([N+](=O)[O-])ccc1NC(=O)Cc1ccc(F)cc1 | -29% | -15% | -6.1% | -11% | -23% | 3% | 16% | -2%
O=c1cc(CN2CCN(c3cccc(C(F)(F)F)c3)CC2)nc2sccn12 | nt | 1% | nt | nt | -12% | ? | -8% | nt
CCC(=O)N1CCN(c2ccc(Cl)cc2NC(=O)c2ccc(N3CCCC3)c([N+](=O)[O-])c2)CC1 | ? | 4% | -2.7% | -9% | -7% | 8% | 9% | -2%
COc1ccc(CCN2C(=O)CC(Cc3ccc(C)cc3)C2=O)cc1OC (stereo unspecified) | 9%[46.1 µM] | 0% | nt | 2% | -13% | 2% | -9% | nt
O=C(NCCc1ccccc1)C1CCCN1C(=O)NCc1ccccc1 (stereo unspecified) | ? | 6% | 4.1% | 1% | -4% | -4% | -25% | -10%
CCOc1ccc(NC(=O)CN(c2ccc(CC)cc2)S(=O)(=O)c2c(C)noc2C)cc1 | nt | nt | -0.3% | -10%[46.1 µM] | -26% | nt | nt | -10%
CCCn1c(=N)n(CC(=O)c2ccc([N+](=O)[O-])cc2)c2ccccc21 | ? | -1% | nt | -5% | -8% | nt | -14% | nt

Screens: PubChem, National Center for Advancing Translational Sciences (NCATS)
